Six1-Eya2 inh: blocks human Six1 binding to Eya2; AlphaScreen GST-Six1/His-Eya2 binding, biochemical; hits give low values; control for the full effect not named in the record; actives 0.56% (n = 360,000); AID 651725; activity change, % (no concentration beside the values); in the data active = activity change below about -65%; inconclusive = about -30% to -65%; inactive = above about -30%; further: on the % scale 0 is the no-effect control and ±100 the full control effect; compound concentration not given in the record
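AlphaScreen with GST-Six1 and His-Eya2 (5X mix: 250 nM and 500 nM), glutathione donor and nickel acceptor beads; buffer 50 mM Tris pH 8.0, 300 mM NaCl, 1 mM TCEP; 1 h at 37 C in the dark.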
PINK1 expr mod: modulators of PINK1 expression | PINK1 immunofluorescence, high-content cytometry, 24 h | Potency, µM (titrated, usually from 76.6 µM), without a hit: top-dose activation (PINK1 increase), actives largely listed as activators | actives 0.2% (n = 410,000); active = well fitted activation curve with a large enough effect; inconclusive = small, poorly fitted or top-dose-only effect; inactive = flat fitted curve, though single readings scatter; cell line not stated here;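 further: potency means the concentration at half of the fitted maximal effect; % of control where 0% means no effect; nearly all actives have a fitted effect of over 65% in size; a mitochondrial uncoupler was the plate control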
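Compound titrations (5 concentrations, 24 h) on a stable cell line; DMSO and CCCP controls. Endpoint: fixed-cell PINK1 immunofluorescence with mitochondrial, cell and nuclear markers, scanned by microplate cytometer.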
D2 potentiator: human D2 receptor positive allosteric modulation | potentiation, % (test concentration not listed) | actives 0.23% (n = 360,000) | DiscoveRx D2 beta-arrestin cells, luminescence, 90 min; 100% = 57 uM dopamine signal; active = potentiation of 50% or more; inconclusive = 30% to 50%; inactive = 30% or less;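 further: compound concentration not given in the record; tested on top of an EC20 dose of dopamine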
Target sequence (P14416 whole entry, looked up): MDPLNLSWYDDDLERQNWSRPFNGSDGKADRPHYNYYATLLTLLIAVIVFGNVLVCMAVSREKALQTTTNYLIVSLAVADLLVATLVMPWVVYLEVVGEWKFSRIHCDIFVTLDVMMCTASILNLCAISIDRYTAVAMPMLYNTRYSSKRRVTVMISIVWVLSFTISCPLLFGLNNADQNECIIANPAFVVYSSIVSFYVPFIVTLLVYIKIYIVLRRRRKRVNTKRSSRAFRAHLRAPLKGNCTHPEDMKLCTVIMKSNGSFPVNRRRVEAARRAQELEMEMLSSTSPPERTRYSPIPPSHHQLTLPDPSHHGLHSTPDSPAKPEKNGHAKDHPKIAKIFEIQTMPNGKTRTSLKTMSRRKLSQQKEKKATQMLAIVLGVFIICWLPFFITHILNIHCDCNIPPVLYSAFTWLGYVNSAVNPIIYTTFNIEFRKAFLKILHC
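PathHunter beta-arrestin assay in DiscoveRx D2 cells. Compounds were added with an EC20 of dopamine (50 nM final) for 90 min at 37 deg C. Luminescence was read 1 h after detection reagent, with 57 uM dopamine as the EC100 control.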
D2 agonist: human D2 receptor agonism in beta-arrestin assay; P14416; DiscoveRx PathHunter D2 beta-arrestin, luminescence, 90 min; 100% = 57 uM dopamine signal; activation, % (concentration not given with the values); actives 0.084% (n = 360,000); in the data active = activation above about 40%; inconclusive = about 15% to 40%; inactive = below about 15%; further: compound concentration not given in the record; the text of the record calls up to 30% inactive
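DiscoveRx PathHunter D2 beta-arrestin cells (2,100/well) attached overnight, then compound-stimulated 90 min at 37 C in HBSS/10 mM HEPES/0.1% Tween-20 buffer; beta-galactosidase complementation read by luminescence after 1 h at ambient temperature. Dopamine 57 uM final (EC100) as control.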
TRPML1 inh: blocks the human TRPML1 channel. actives 0.02% (n = 390,000). activity change, negative = inhibition, % (concentration not given with the values). Q9GZU1. TRPML1-inducible cells, Ca2+ dye fluorescence, FDSS; hits give low values; inhibition of EC80 agonist-evoked calcium signal. AID 624415; in the data active means activity change below about -50%; inconclusive means about -30% to -50%; inactive means above about -30%;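 further: stimulus is agonist 54-4 at its EC80 concentration; on the % scale 0 is the no-effect control and ±100 the full control effect; compound concentration not given in the record; the text of the record puts the active cut at -80%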
Target sequence (Q9GZU1 whole entry, looked up): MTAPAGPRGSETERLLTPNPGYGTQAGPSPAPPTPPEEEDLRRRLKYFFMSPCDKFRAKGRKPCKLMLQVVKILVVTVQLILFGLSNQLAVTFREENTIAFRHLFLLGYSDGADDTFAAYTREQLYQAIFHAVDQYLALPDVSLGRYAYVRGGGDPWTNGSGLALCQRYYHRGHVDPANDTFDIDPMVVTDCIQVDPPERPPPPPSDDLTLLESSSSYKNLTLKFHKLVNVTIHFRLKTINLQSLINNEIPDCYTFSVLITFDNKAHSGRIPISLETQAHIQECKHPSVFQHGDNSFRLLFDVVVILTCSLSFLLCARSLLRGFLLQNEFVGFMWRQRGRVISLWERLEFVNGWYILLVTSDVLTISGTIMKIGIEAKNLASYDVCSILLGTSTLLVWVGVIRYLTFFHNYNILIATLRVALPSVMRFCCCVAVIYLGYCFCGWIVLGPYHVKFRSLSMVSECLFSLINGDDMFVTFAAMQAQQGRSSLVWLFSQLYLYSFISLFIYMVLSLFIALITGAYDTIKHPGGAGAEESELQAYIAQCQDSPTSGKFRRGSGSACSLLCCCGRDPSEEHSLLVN
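Tet-induced TRPML1-DL cells loaded with Ca8 no-wash calcium dye were read kinetically on FDSS. Compound addition was followed by EC80 agonist 54-4 (4 uM final); inhibition was read over 110 s.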
TRPML1 agonist: activates the human TRPML1 channel; AID 624414; TRPML1-expressing cells, Ca2+ dye fluorescence, FDSS; host cell line not named in the record; reference of the full effect not given here; activation, % (concentration not given with the values); actives 0.12% (n = 410,000); in the data active = activation above about 50%; inconclusive = about 30% to 50%; inactive = below about 30%; further: 0% is about no effect; the text of the record puts the active cut at 80%
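Tetracycline-induced TRPML1-DL cells are seeded and incubated overnight before loading with a no-wash Ca2+ dye and quencher. Agonist activity is taken from the 110 s fluorescence read following compound pin-transfer on an FDSS, before EC80 54-4 challenge.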
* = called active by the depositor; ? = inconclusive; / = no result given; & = joins results of further samples; [ ] = dose if it differs, or a comment.

Every second line gives: Six1-Eya2 inh, PINK1 expr mod, D2 potentiator, D2 agonist, TRPML1 inh, TRPML1 agonist
CC(C)(C(=O)N1CCC1(C)C(=O)NS(=O)(=O)c1ccc(C#N)cc1)c1ccccc1 (stereo unspecified)
    4.2, 3.7%, -4.4, -3.8, /, -0.1
CCc1ccc(NC(=O)C2CCCN(S(=O)(=O)c3cccc4cccnc34)C2)cc1 (stereo unspecified)
    /, -0.3%, /, /, 11.1, 0.5
CCC(=O)c1ccc(OCC(=O)OCC(=O)NCCC2=CCCCC2)cc1
    9.7, 0.2%, -3.2, -6.3, 4.3, -0.6
COc1cc(C(=O)NCCSc2ccc(F)cc2)cc(OC)c1OC
    -6.5, -1.3%, -17.2, -0.5, -16.3, 0.7
CCCCCCSc1nc2c(c(=O)[nH]c(=O)n2C)n1C
    6.9, 0.4%, -5.2, 3.4, -3.9, 0.2
COC(=O)c1cc2sc(Cl)cc2n1CC(=O)Nc1cccc(SC)c1
    -6.0, /, 1.0, -4.4, 2.7, 1.3
CC(C)(C)c1cc(Cc2ccccc2)[nH]n1
    0.8, 3.2%[38.3 µM], -7.1, -0.7, -6.2, 0.1
CC1=C(C(=O)N(C(C)C)C(C)C)CC(CC(=O)NCc2cccs2)C(=O)N1CCCN1CCCC1=O (stereo unspecified)
    0.0, 5.3%, -7.3, -4.9, -25.6, 0.8
CC1CC(C)CN(S(=O)(=O)c2cccc3nsnc23)C1 (stereo unspecified)
    -10.8, -1.4%, -21.1, -4.0, -3.7, 0.8
O=S(=O)(c1ccccc1)N1CN(Cc2ccc(F)cc2)c2nc3ccccc3nc21
    -13.8, 3.3%, 1.6, 0.1, 25.0, 0.0
Cc1ccc(NC(=O)Nc2cccc(C)n2)cc1
    5.3, 1.0%&0.0%, -13.1, 1.8, 3.9&-9.4, 2.0&-0.8
CCOC(=O)C1=C(CSc2nc(CC)c(C)cc2C#N)OC(N)=C(C#N)C1c1ccc(OC)cc1 (stereo unspecified)
    -14.3, -0.9%, 2.0, -1.6, 0.2, 9.0
COc1cccc(C(O)c2ncc(-c3ccccc3)[nH]2)c1 (stereo unspecified)
    -6.9, 0.1%, -4.6, 0.3, /, -1.1
CC1SCC(=O)N(CC(=O)Nc2ccc3c(c2)OCCO3)C1=O (stereo unspecified)
    -1.5, 0.2%, -11.4, -4.8, 8.4, 0.0
CC(=O)C1=C(C)NC(=O)NC1/C=C/c1ccccc1 (stereo unspecified)
    4.0, 2.7%, -3.9, -3.3, ?, 0.7
COC(=O)C1(S(=O)(=O)c2ccc(C)cc2)CCOCC1
    8.8, /, -7.9, 0.8, -1.6, 0.8
CC(=O)c1ccc(-c2cnc3c(NC=O)cc(-c4ccc(S(C)(=O)=O)cc4)cn23)cc1
    -3.1, 0.7%, 5.8, 7.5, 5.9, -0.1
C[C@H](NC(=O)[C@@H]1CSC2c3ccccc3C(=O)N21)C(=O)NC1CCCCC1 (stereo partly specified)
    6.3, -1.1%, -4.2, 0.6, -3.3, -0.8
CCOc1ccc(NC(=O)CCN2C(=O)c3ccccc3C2=O)cc1
    2.1, 2.8%, 0.2, -5.1, -5.7, 0.1
COc1ccc2c3c([nH]c2c1)C(C)N(C(C)=O)CC3 (stereo unspecified)
    -6.2, 0.1%, 18.3, -3.3, -1.7, 3.5
CC1(C)c2ssc(=S)c2-c2ccccc2N1C(=O)c1ccco1
    -9.8, 1.6%, -8.7, -3.3, 51.9, 3.1
CC[C@H](C)Cc1cn([C@@H](CCCN=C(N)N)C(=O)NCCCCCCCCCCC(=O)N2CCNCC2)nn1
    12.2, 1.1%, -26.6, -3.3, 17.7, 1.0
COCCN(C(=O)COC(=O)/C=C/c1ccc2ccccc2n1)c1c(N)n(Cc2ccccc2)c(=O)[nH]c1=O
    -0.6, 10.8%, 9.4, -4.3, -1.1, -0.1
Cc1sc2nc(CN3CCOCC3)nc(NS(=O)(=O)c3cc(Cl)ccc3Cl)c2c1C
    7.5, 0.6%, 2.4, 1.9, 6.0, 0.8
CCn1c(C)c(CCC(=O)O)c(=O)n2nc(-c3ccccc3OC)cc12
    -2.3, 0.6%, -20.3, -2.6, -11.2, -0.6
CCOC(=O)CC1C(=O)NCCN1C(=O)Nc1ccccc1 (stereo unspecified)
    -2.1, 3.1%, 15.1, 1.2, -28.4, 0.4
Cc1cc(C)c(C(=O)/C=C/c2cccs2)c(=O)[nH]1
    -5.1, 0.5%, -2.8, -7.3, 21.3, -0.6
COc1ccc(CSCC(=O)Nc2ccccc2)cc1[N+](=O)[O-]
    1.5, 1.1%, -8.2, -2.1, -0.9, -0.5
COc1ccccc1Nc1nnc(SCC(=O)Nc2nc(-c3ccc(F)cc3)cs2)s1
    -4.3, ?, -3.5, -5.3, 30.9, 0.5
Cc1ccc(S(=O)(=O)NNC(=O)NC23CC4CC(CC(C4)C2)C3)cc1
    3.4, 1.9%, 6.8, 1.6, 10.9, 0.5
CCCCNc1c(NC(C)=O)c(=O)oc2ccccc12
    -1.1, 3.0%, -4.2, -7.6, 2.0, -0.3
COc1ccc(NC(=O)CNc2cccc(C#N)c2)cc1Cl
    -1.5, -0.1%, -10.4, -3.9, 7.5, -0.4
CC(CCc1ccco1)NC(=O)Cn1nc(Cc2ccncc2)c2ccccc2c1=O (stereo unspecified)
    -4.4, 2.6%, -4.7, -9.5, -6.4, 0.8
Cc1ccc(OCc2ccoc2C(=O)O)cc1C
    -5.9, 0.3%, -5.1, -0.7, -7.0, -0.5
Oc1ccccc1Cn1c(-c2ccccc2O)nc2ccccc21
    1.7, 7.8%, 9.1, 2.5, -12.0, 0.5
Cc1c(NC(=O)c2cc3nc(-c4ccccc4)cc(C)n3n2)c(=O)n(-c2ccccc2)n1C
    -6.3, -0.3%, -3.8, 3.2, 20.8, 0.8
Cc1c(-n2c(SCC(=O)NC(C)C)nc3ccccc3c2=O)c(=O)n(-c2ccccc2)n1C
    -1.5, -0.3%, -7.6, -5.2, -2.4, 0.3
CCN1C(=S)SC(=O)C1=C1C=C(C)N(CCO)C(C)=C1
    -9.7, -2.8%[38.3 µM], -17.8, -1.2, 0.3, 7.0
NC(=O)C1CCN(C(=O)CSc2nc3ccccc3s2)CC1
    5.4, 0.7%, -6.9, 0.0, 8.3, 1.8
Cc1ccc2occ(C3N[C@H](C(=O)O)CS3)c(=O)c2c1 (stereo partly specified)
    -0.5, -0.5%, 2.1, -4.2, 10.3, 1.0
COc1cc2c(cc1OC)CN(S(=O)(=O)c1cccs1)CC2
    -7.8, 3.5%, -13.2, -4.1, 6.0, 0.7
COc1ccc(-c2c(C#Cc3ccsc3)c3cc(-c4ccc(OC)nc4)ccc3n2C)cc1
    0.7, 1.0%, 0.2, 1.3, -10.5, -0.8
COC(=O)CSc1nc2nc(C)cc(C)n2n1
    8.8, 0.0%, -1.2, 3.3, -6.9, 0.1
CNc1ccc(Br)cc(C(=O)/C=C/c2cccc(Cl)c2Cl)c1=O
    -10.8, 9.2%, -4.0, 6.2, 3.3, 2.7
CC(=O)N1CCN(c2ccc(NCc3ccc4c(c3)OCO4)cc2)CC1
    -16.8, 0.7%, 18.5, 9.7, 8.8, 0.0
O=[N+]([O-])c1ccc(NC(=S)NCCc2ccc(Cl)cc2)cc1
    -27.3, ?, -7.0, -2.5, 29.9, -0.8
CCOc1ccc(N2CC(c3nc4ccccc4n3CCOc3ccc(OC)cc3)CC2=O)cc1 (stereo unspecified)
    /, -1.3%, /, /, -0.2, 0.7
CCc1nnc(NS(=O)(=O)c2ccc(N/C=C\C(=O)c3ccc4ccccc4c3)cc2)s1
    -24.6, 3.9%, 14.8, -1.0, 2.0, 0.4
CCOc1ccc(C2/C(=C(/O)c3ccc4c(c3)CC(C)O4)C(=O)C(=O)N2CCCn2ccnc2)cc1OCC (stereo unspecified)
    1.1, 0.6%, -11.9, 3.8, -4.3, -0.4
CC(Oc1ccccc1)C(=O)N=Nc1c(O)[nH]c2ccc([N+](=O)[O-])cc12 (stereo unspecified)
    -6.1, 1.7%, -11.6, -13.5, 10.6, 3.4
Cc1cc2ncc(-c3ncc(C(F)(F)F)cc3Cl)cn2n1
    6.2, 0.4%[38.3 µM], -1.3, 0.7, -9.2, 0.0
O=C(C1COc2ccccc2O1)N1CCN(c2nc3ccc([N+](=O)[O-])cc3s2)CC1 (stereo unspecified)
    0.4, ?, -4.5, 0.3, -11.1, -0.2
Cc1nc2ccc(C(=O)OCc3ccccc3Br)cc2nc1C
    2.1, 9.7%[38.3 µM], -3.8, -1.1, -13.0, -0.2
O=C(O)c1cccc(-n2cccc2/C=C2/NC(=O)N(c3cccc(Cl)c3)C2=O)c1
    -22.3, -0.9%, 3.2, -2.2, 7.2, 2.5
COc1ccc(CN2CCC(Oc3cc(C(=O)NC4CC4)ccc3OC)CC2)c(O)c1
    -5.9, -0.9%, -45.0, -3.9, 0.2, 0.2
CC1Cc2ccccc2N1C(=O)CSc1nc(-c2ccco2)cc(C(F)(F)F)n1 (stereo unspecified)
    5.3, 8.2%, -8.5, -4.7, -4.0, -0.8
Cc1c(Cl)c([N+](=O)[O-])nn1CCCC(=O)Nc1ccc(Cl)cc1Cl
    14.2, 5.6%, -16.6, -6.2, -1.4, 0.8
Cc1ccc(S(=O)(=O)N2[C@@H](c3ccc(Br)cc3)C(C(=O)O)=CC[C@H]2c2ccc(C(C)C)cc2)cc1
    0.4, 0.3%, /, -2.9, 13.7, -0.6
Cc1ccc(S(=O)(=O)Nc2ccc3c(c2)CC(=O)N([C@H](C)CO)C[C@H](C)[C@H](CN(C)Cc2ccc4c(c2)OCO4)O3)cc1
    -10.3, 0.1%, -7.4, -4.9, 34.8, 0.3
COc1ccc(Br)cc1CN(C)CC(=O)Nc1cccc(S(=O)(=O)N2CCCC2)c1
    -20.4, 0.1%, -11.1, 4.3, 12.7, 0.4
CCOC(=O)c1cc2c(n(-c3ccc(C)cc3)c1=O)CCCC2=O
    0.1, -0.9%, 3.2, 1.4, -1.6, 0.6

Assay outcomes deposited in PubChem BioAssay by National Center for Advancing Translational Sciences (NCATS).
